Vaccinia Venus: qHTS for Stage-Specific Inhibitors of Vaccinia Orthopoxvirus: Venus Reporter Primary qHTS | AID 720580, 2013 | Potency, µM (highest dose often 36.5 µM), inactives show at the top dose activity change, negative = inhibition, usual class: inhibitors | hit rate 0.46% among 330,000 | Vaccinia virus Venus reporter expression, fluorescence; active means well fitted inhibition curve with a large enough effect; inconclusive means small, poorly fitted or top-dose-only effect; inactive means no such curve, though single readings can be large or run the other way; tested in A549 cells; note: nearly all actives have a fitted effect of over 30% in size; inactives centre near -10
VACV mCherry inh: qHTS for Stage-Specific Inhibitors of Vaccinia Orthopoxvirus: mCherry Reporter Primary qHTS. Vaccinia virus mCherry reporter infection, fluorescence; about a quarter of the inactives have no number. Potency, µM (titrated, usually from 36.5 µM), for inactives: at the highest dose activity change, negative = inhibition, actives largely listed as inhibitors. hit rate 0.63% among 310,000; active = well fitted inhibition curve with a large enough effect; inconclusive = small, poorly fitted or top-dose-only effect; inactive = no such curve, though single readings can be large or run the other way; tested in A549 cells; note: nearly all actives have a fitted effect of over 35% in size; inactives centre near -10
* = called active by the depositor; i = inactive; ? = inconclusive; . = no result given; & = joins results of further samples; [ ] = another dose, or the depositor's remark. % is set by controls: 0 for no effect and ±100 for the full control effect; potency is the fitted concentration of half-maximal effect.

SMILES	Vaccinia Venus	VACV mCherry inh
CCOC(=O)CSc1ccc(S(=O)(=O)N2CCCC2)cc1[N+](=O)[O-]	-11%	i
Cc1[nH]c2ccccc2c1C(=O)CSc1n[nH]c(N)n1	-4%	i
CC1CCC(C(C)C)C(OCC(O)C[N+]2(C)CCCCC2)C1 (configuration not stated)	-3%	8%
CN(C(=O)c1cc2c(s1)-c1ccccc1S(=O)(=O)C2)c1ccccc1	-19%	1%
O=c1c2c3nc4ccccc4nc3n(-c3ccc4c(c3)OCCO4)c2ncn1C1CCCC1	-3%	-13%
COCCN(CC(=O)Nc1ccccc1)S(=O)(=O)c1ccc(S(=O)(=O)N2CCCC2)cc1	-21%	.
O=C(O)CCc1c(C(=O)O)[nH]c2ccccc12	-13%	.
CCc1nc2ccc(C(=O)NCCN3CCNC3=O)cn2c1N(C)CCC(C)C	0%	32%[activator]
CCOC(=O)c1c(NC(=O)CCN2C(=O)c3cccc([N+](=O)[O-])c3C2=O)sc(C(=O)OC(C)C)c1C	-14%	-2%
CCOC(=O)C1=C(C)NC(=O)NC1c1ccc(OCCO)c(OC)c1 (configuration not stated)	-9%	.
O=C1c2ccccc2C(c2nnnn2-c2ccc3c(c2)OCCO3)N1CCc1ccccc1F (configuration not stated)	-10%	-6%
Cc1nc(N2CCc3ccccc3C2)[nH]c(=O)c1CCC(C)C	-7%	i
CCN(CC)c1ccc2cc(S(=O)(=O)c3ccc(C)cc3)c(=O)oc2c1	-3%	-12%
Cc1ccc2oc3c(c(=O)c2c1)C(c1ccc(OCC(N)=O)cc1)N(Cc1ccc2c(c1)OCO2)C3=O (configuration not stated)	1%	-10%
CCN(CC)c1ccc(S(=O)(=O)Nc2cc(Cl)ccc2Cl)cc1NC(=S)NC(=O)C1CCCC1	-23%	-23%

Shown in CSV form: part of the list above.
Compound,Vaccinia Venus,VACV mCherry inh
O=c1c2c3nc4ccccc4nc3n(-c3ccc4c(c3)OCCO4)c2ncn1C1CCCC1,-3%,-13%
CCc1nc2ccc(C(=O)NCCN3CCNC3=O)cn2c1N(C)CCC(C)C,0%,32%[activator]
COCCN(CC(=O)Nc1ccccc1)S(=O)(=O)c1ccc(S(=O)(=O)N2CCCC2)cc1,-21%,.

The listing continues.
SMILES	Vaccinia Venus	VACV mCherry inh
CC1(C(=O)Nc2cccc3c2CCCC3)CCN1C(=O)Cc1ccccc1Cl (configuration not stated)	-5%	34%[activator]
CC(C)c1ccc(COc2ccc(C(=O)N3CCOCC3)cc2)cc1	-26%	-1%
O=c1c2ccccc2c(/C=N/c2nnc(Cc3ccccc3)s2)c(O)n1-c1ccc(Cl)cn1	-13%	-4%
CC(=O)c1ccc(NC(=O)C2C3C=CC(O3)C2C(=O)O)cc1 (configuration not stated)	-10%	-9%
CN(C)S(=O)(=O)N1CCC(CO)(CCc2ccccc2)CC1	-8%	-21%
CN(C)c1ccc2nc3c(=O)[nH]c(=O)nc-3n(CC(O)C(O)C(O)CO)c2c1 (configuration not stated)	.	55%[activator]
CCOc1ccc(-c2nonc2NC(=O)c2oc3cc(C)ccc3c2C)cc1OCC	-15%	-9%
O=C(O)CCCCC1CCSS1 (configuration not stated)	-17%&-8%	-12%
CN(C)c1cccc(C(=O)N/N=C/c2ccsc2)c1	-8%	-1%
C(=C\c1ccccc1)/CN1CCN(C(c2nnnn2C2CCCCC2)C2CC2)CC1 (configuration not stated)	-14%	i
O=C(NC1CCCC1)C1CCCN1S(=O)(=O)c1cccc2cccnc12 (configuration not stated)	-10%	-7%
O=C(Nc1cc(Cl)ccc1N1CCOCC1)c1cnccn1	-11%	-17%
CC(=O)Nc1ccc(S(=O)(=O)Oc2ccc(/C=N/NC(=O)c3ccc(Cl)cc3)cc2)cc1	-30%	?
CC(CC(=O)N(CCC1=CCCCC1)c1c(N)n(Cc2ccccc2)c(=O)[nH]c1=O)c1ccccc1 (configuration not stated)	?	?
CC(SC(C)C(=O)NN=Cc1cccc(F)c1)C(=O)NN=Cc1cccc(F)c1 (configuration not stated)	-3%	i
Cc1ccc(-c2cn(-c3ccccc3)c(SCC(N)=O)n2)cc1C	-20%	-13%
O=C(O)C1CSC(c2ccc3c(c2)OCO3)N1 (configuration not stated)	4%	i
S=c1[nH]nc(-c2ccc(Cl)cc2)n1Cc1ccccc1	-10%	-19%
Cn1c(SCC(=O)Nc2cc(C(C)(C)C)nn2-c2ccccc2)nc2ccccc21	-28%	-17%
CC(C)NC(=O)c1ccc(N(Cc2ccc(Cl)cc2)S(C)(=O)=O)cc1	0%	i
CSC1=NCCN1S(=O)(=O)c1ccccc1	-6%	i
CC(=O)N(Cc1ccccc1)c1ncc2c(n1)c(=O)c(C#N)c1ccccn12	-4%	-12%
CC(O)(c1cccnc1)c1nc(-c2ccc(F)c(Cl)c2)cs1 (configuration not stated)	-13%	42%[activator]
CC(CSc1nnnn1-c1ccccc1)Cn1c(N2CCCC2)nc2c1c(=O)[nH]c(=O)n2C (configuration not stated)	-13%	-8%
CC(=O)N1CCc2c(sc3c2c(=O)n(-c2cccc(Cl)c2C)c(=O)n3Cc2ccccc2C)C1	-20%	-24%
COc1ccc(S(=O)(=O)N(C)C[C@H]2Oc3c(NC(=O)Nc4ccccc4)cccc3C(=O)N([C@H](C)CO)C[C@@H]2C)cc1	-24%	-2%
Cc1ccc(/C=N/NC(=O)c2ccccn2)s1	-13%	i
CC1CCCN(C(=O)c2ccc(NC(=O)CC3SC(N4CCCC4)=NC3=O)cc2)C1 (configuration not stated)	-18%	i
C=CCOC(=O)Nc1snnc1C	-8%	.
O=C1CC(c2ccccc2)N1c1ccccc1 (configuration not stated)	11%	4%
CCCCNc1c(-c2ccc(SC3CCCCC3)cc2)nc2cnccn12	-21%	-3%
C=CC[C@H]1Cc2c(cccc2[N+](=O)[O-])[C@H](CC=C)N1	10%	?
O=C(NCC1(c2ccccc2)CCCC1)C1(c2ccccc2)CCCC1	-27%	5%[1.46 µM]
O=C(Cc1cccs1)N/N=C\c1ccc([N+](=O)[O-])s1	?	?
CCC(C)Cn1c(O)cc2nn(-c3nc4ccccc4s3)c(=O)c-2c1C (configuration not stated)	-2%	-26%
Cn1[nH]c(=O)c2ccccc2c1=O	0%	i
COc1ccc(OCC(=O)Nc2ccccc2C(=O)N2CCCC2)cc1	?	-6%
CSc1ncc(C(=O)Nc2cccc(Cl)c2C)c(-c2ccccc2)n1	-7%	-10%
CCCCCn1c(CN2CC(C)OC(C)C2)nc2c1c(=O)n(C)c(=O)n2C (configuration not stated)	-6%	-5%
NC(=O)CSc1nnnn1-c1cccc(O)c1	-11%	-21%
N=C1c2ccccc2CN1NC(=O)c1ccc(Br)cc1	0%	-18%
O=S1(=O)CCN2C=C(Cl)C=C(Cl)C2=N1	-18%	-11%
CC/C(=N\NC(N)=O)c1c(O)[nH]c(=O)[nH]c1=O	-1%	i
CCCc1nnc(NC(=O)c2cc(=O)c3cc(Cl)ccc3o2)s1	11%	13%
Cc1c(C(=O)OCC2CCCO2)[nH]c2c1C(=O)CC(c1ccc(N(C)C)cc1)C2 (configuration not stated)	-21%	-18%
Cc1sc2ncn(CC(=O)N3CCN(c4ccccc4F)CC3)c(=O)c2c1S(=O)(=O)N1CCN(c2ncccn2)CC1	1%	-5%
Cn1c(=O)c(=O)n(C)c2cc(S(=O)(=O)NCCOc3ccccc3Cl)ccc21	-12%	i
CCn1cc(CNC(=O)c2c(-c3c(Cl)cccc3Cl)noc2C)c(C)n1	-12%	-16%
COc1ccc(C(=O)CN2C(=O)NC(C)(c3ccccc3)C2=O)cc1OC (configuration not stated)	-12%	.
CCOc1ccc(N(CC(=O)NCc2cccnc2)S(=O)(=O)c2ccc(F)cc2)cc1	-4%	i
CC1CCN(S(=O)(=O)c2ccc3c(c2)N(CC(=O)N2CCN(c4ccccc4)CC2)C(=O)CO3)CC1	-2%	-6%
Cc1ccc(-c2nnc(NC(=O)c3ccc([N+](=O)[O-])o3)o2)c(C)c1	?	?
Cn1c(SCCc2ccc([N+](=O)[O-])cc2)nccc1=O	1%	-21%
COc1cccc2sc(N3CCN(C(=O)c4ccc([N+](=O)[O-])o4)CC3)nc12	13µM*	8.9µM*
O=C(Nc1nnc(-c2ccco2)o1)c1ccc([N+](=O)[O-])s1	?	?
Cn1ncc2c(Nc3ccc(-c4ccccc4)cc3)ncnc21	-10%	?
O=C(CN1C(=O)c2ccccc2C1=O)N1CCN(S(=O)(=O)c2ccccc2)CC1	-1%	-10%
Cc1c(C(=O)NC(C)c2ccc(-n3ccnc3)cc2)cccc1[N+](=O)[O-] (configuration not stated)	-9%	-4%
Fc1ccccc1CCNCc1cccc2ccccc12	-25%	-8%
CN(C)c1ccc(C=O)c(Oc2ccccc2)c1	-21%	-10%

More results.
SMILES	Vaccinia Venus	VACV mCherry inh
O=S(=O)(NCCc1cn2ccccc2n1)c1ccc2c(c1)CCCC2	-4%	0%
CC(=O)C(Cc1ccccc1)NC(=O)COC(=O)CCN1C(=O)C2CC=CCC2C1=O (configuration not stated)	1%	-14%
COc1ccc(C(=O)NCCc2nnc(SCC(=O)Nc3ccc(Br)cc3)n2C)cc1	-17%	-19%
Cc1ccc(-n2nc3c(c2NC(=O)C2CC2)CS(=O)(=O)C3)cc1C	-13%	i
O=c1[nH]c(N/N=C\c2ccc3c(c2)OCO3)nc2ccccc12	-23%	-22%
Cc1cccc(CS(=O)(=O)c2ncc(CO)n2C)c1	-13%	i
Cc1cc(/C=C(\C#N)C(=O)NC2CCCCCC2)c(C)n1C	-23%	-20%
CCN(CC(=O)Nc1c(F)cccc1F)C(=O)c1cccnc1Sc1ccccc1	-13%	i
COCCNC(=O)CN(C(=O)Cn1nnc2ccccc21)c1ccccc1	-4%	-15%
CC(C)CC(=O)N1CCN(S(=O)(=O)c2ccc(F)cc2)CC1	-3%	-13%
O=C(C[C@H]1C/C=C\C[C@@H](Cc2ccc(F)cc2)C(=O)OC[C@@H](Cc2c[nH]c3ccccc23)NC1=O)NCCO	-14%	i
CCOC(=O)C1CCN(C(=O)CCCCn2c(=O)[nH]c3ccccc3c2=O)CC1	-6%	-21%
O=C(Nc1nn[nH]n1)c1cccc(Oc2ccccc2)c1	-1%	.
CC(C)CN(C(=O)COC(=O)C12CC3CC(CC(C3)C1)C2)c1c(N)n(Cc2ccccc2)c(=O)[nH]c1=O	-19%	-1%
CCOC(=O)c1sc(NC(=O)c2cc(-c3ccccc3C)nc3ccccc23)c(C#N)c1C	?	?
CCO[C@H]1OC(C(=O)O)=C[C@@H](c2coc3ccccc3c2=O)[C@@H]1CCCO	-6%	i
C=CCN(CC=C)CCCOc1ccc(C)cc1OC	-7%	-24%
CCOC(=O)c1ccc(NC(=O)c2cccnc2)cc1	-5%	i
CC(OC(=O)Cc1ccc(Cl)cc1)C(=O)NCCC1=CCCCC1 (configuration not stated)	-8%	-12%
COc1cc2cnc(-c3ccccc3)c(C(=O)c3ccc(OCc4ccccc4)cc3)c2cc1OC	?	i
Cc1c(NC(=O)c2ccc(Cl)c(S(=O)(=O)N3CCCCC3)c2)c(=O)n(-c2ccccc2)n1C	-1%	i
COc1ccccc1OCC(=O)N1CCN(c2ccccc2OC)CC1	-2%	-10%
COC(=O)[C@H](CC(C)C)NC(=O)Cn1cnc2c(SC)nc(N)nc21	0%	i
CC(=O)NC(CC(C)C)C(=O)NC(CO)C(=O)NC(CCC(=O)O)C(=O)NC(C)C(=O)NC(CC(C)C)C(N)=O (configuration not stated)	2%	i
CC1(C(=O)NS(=O)(=O)c2ccc(Br)cc2)CCN1C(=O)C/C=C/c1ccccc1 (configuration not stated)	-6%	36%[activator]
COc1ccc(-n2nc(C(C)=O)c(=O)[nH]c2=O)cc1	-11%	-4%

Ordered by SMILES length (smallest number first): 6 of the compounds above
SMILES	Vaccinia Venus	VACV mCherry inh
C=CCN(CC=C)CCCOc1ccc(C)cc1OC	-7%	-24%
O=C(Nc1cc(Cl)ccc1N1CCOCC1)c1cnccn1	-11%	-17%
Cc1[nH]c2ccccc2c1C(=O)CSc1n[nH]c(N)n1	-4%	i
COc1ccc(-n2nc(C(C)=O)c(=O)[nH]c2=O)cc1	-11%	-4%
CCOC(=O)c1sc(NC(=O)c2cc(-c3ccccc3C)nc3ccccc23)c(C#N)c1C	?	?
CC1CCN(S(=O)(=O)c2ccc3c(c2)N(CC(=O)N2CCN(c4ccccc4)CC2)C(=O)CO3)CC1	-2%	-6%
